# Bfl-1 A1 inh: inhibitors of the anti-apoptotic protein A1, read as caspase activation; 0.066% of 330,000 active; MEF A1-2A-BIM cells, Caspase-Glo 3/7 luminescence, 3 h; percent of clofoctol response, vehicle zero; caspase activation, % (concentration not given with the values);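 active = over half of replicate activation scores above 10%, or exactly half above 10 with the replicate mean above 10; inconclusive = replicate mean below 10 yet half the replicates above 10; inactive = over half of replicates below 10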;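 note: wells of about 30 µL received 50 nL stock; many hits fall short of the cut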
# LANA-H2B inh: blocks KSHV LANA binding to histone H2A/H2B | AID 2629 | Q9QR71 | 0.6% of 320,000 active | cell-free LANA-H2A/H2B peptide, fluorescence polarization | inhibition, % (concentration not given with the values); in the data active = inhibition mostly above about 10%, no sharp cut-off; inactive = mostly below about 6.7%;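 note: stock transfer was 7.5 nL into about 10 µL; 0% = median of vehicle wells and 100% = median of positive control wells; one replicate is shown; the record names a cut of 25% in any replicate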
# RanGTP-Impb inh: inhibitors of RanGTP-importin-beta interaction, primary screen, biochemical, FRET, CFP-Ran, YFP-importin-beta, homogeneous; cell-free CFP-Ran/YFP-importin-beta FRET ratio; inhibition, % (no concentration beside the values); 1.1% of 300,000 active;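 active = most replicates above 15%; inconclusive = exactly half above 15%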;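 note: 0% = DMSO wells and 100% = Ran loaded with GDP instead of GTP; wells of about 40 µL received 100 nL stock; the first replicate is given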
# T cruzi repl: blocks replication of Trypanosoma cruzi; inhibition, % (test concentration not listed); 1.4% of 300,000 active; AID 1885; T. cruzi beta-gal in NIH3T3, luminescence, 90 h;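 active = mean inhibition across valid replicates above about 55%, limit read from the data; inconclusive = mean below that limit but half or more replicates reach it; inactive = mean below it, under half of replicates reach it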;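 note: signal also drops with host cell toxicity which is not excluded here; 0% = plate median of DMSO wells and 100% = zero luminescence signal; higher percent means less beta-gal luminescence so fewer parasites; stock transfer was 50 nL into about 50 µL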
# UCH37 inh: human UCH37 deubiquitinating enzyme inhibition | Q9Y5K5 | purified proteasome/UCH37, Ub-AMC cleavage fluorescence | inhibition, % (concentration not given with the values) | 0.33% of 330,000 active;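 active = mean of two replicates above 20%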;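 note: 0% = compound-free wells with enzyme and 100% = wells lacking proteasome; stock transfer was 100 nL into about 20 µL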
# Target sequence (Q9Y5K5 whole entry, looked up): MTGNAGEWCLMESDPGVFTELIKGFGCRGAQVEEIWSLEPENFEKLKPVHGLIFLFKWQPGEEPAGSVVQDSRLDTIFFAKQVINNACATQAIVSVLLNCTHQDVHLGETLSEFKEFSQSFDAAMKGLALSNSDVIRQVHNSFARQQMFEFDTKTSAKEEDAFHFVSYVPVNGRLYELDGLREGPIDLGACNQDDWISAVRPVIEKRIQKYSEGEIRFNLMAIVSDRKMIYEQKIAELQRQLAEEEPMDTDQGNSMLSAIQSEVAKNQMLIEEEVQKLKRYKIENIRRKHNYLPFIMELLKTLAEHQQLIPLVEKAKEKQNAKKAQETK
#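 system = Proteasome-associated human UCH37 deubiquitinase | amount = 0.15 nM proteasome as dispensed | medium = pH 7.4 Tris-HCl (50 mM) with ovalbumin, ATP-MgCl2, DTT | incubation = 30 min preincubation with enzyme, 25 min cleavage at room temperature | detection = AMC fluorescence 355/460 nm | read-out basis = percent inhibition | controls = no-proteasome and no-compound wells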
# Beta2AR agonist: agonists of human beta-2 adrenergic receptor inducing internalization; P07550; Am2.2-beta2AR cells, FAP receptor internalization, flow cytometry; reference of the scale not given here; response, % (concentration not given with the values); 0.43% of 340,000 active; AID 504454;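 active = response above a set limit, near 3 SD of response in nonfluorescent compounds, cut at about 42% in these data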;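 note: stock transfer was 100 nL into about 11 µL; a reference agonist was the positive control; negative values mostly stem from fluorescent compounds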
# Target sequence (P07550 whole entry, looked up): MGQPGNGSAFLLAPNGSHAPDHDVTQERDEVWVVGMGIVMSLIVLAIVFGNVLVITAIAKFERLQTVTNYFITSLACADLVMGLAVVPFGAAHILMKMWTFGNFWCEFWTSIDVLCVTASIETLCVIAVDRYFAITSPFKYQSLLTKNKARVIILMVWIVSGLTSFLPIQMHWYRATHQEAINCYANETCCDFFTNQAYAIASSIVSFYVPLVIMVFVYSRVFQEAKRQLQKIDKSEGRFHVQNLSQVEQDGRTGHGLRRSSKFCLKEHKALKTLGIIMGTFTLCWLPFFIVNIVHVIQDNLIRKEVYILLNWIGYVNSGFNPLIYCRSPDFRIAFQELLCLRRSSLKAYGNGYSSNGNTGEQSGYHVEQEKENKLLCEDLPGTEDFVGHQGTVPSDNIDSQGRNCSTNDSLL
# Calb FLC: affects C. albicans growth with fluconazole | C. albicans CaCi-2 (fluconazole-resistant clinical isolate) + fluconazole, Alamar Blue growth, 48 h | growth inhibition, % (test concentration not listed) | 0.57% of 300,000 active;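 active = most replicates above 75%; inconclusive = exactly half above 75%; inactive = most below 75%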;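 note: all wells also contain fluconazole at 8 µg/ml as a sub-toxic cotreatment; 0% = median of DMSO wells and 100% = median of geldanamycin control wells; wells of about 8 µL received 7.5 nL stock; the first replicate is given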
# Beta cell apopt: beta cell apoptosis inhibition; protection from apoptosis, % (no concentration beside the values); AID 435005; INS-1E cytokine-induced death, ATP luminescence, 48 h; percent of positive-control rescue, neutral wells zero; 0.8% of 300,000 active;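 active = all replicates at 75% or more, or half of them and the mean; inconclusive = half reach 75% but not the mean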;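 note: 0% = cytokine-treated negative control wells and 100% = positive control rescue; higher means more ATP so stronger rescue from cytokine killing; wells of about 40 µL received 100 nL stock; the first replicate is given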
# An asterisk follows results filed as active; ? = inconclusive; . = no result given. Compounds as they come; overall some 4.3% were active at least once.
SMILES,Bfl-1 A1 inh,LANA-H2B inh,RanGTP-Impb inh,T cruzi repl,UCH37 inh,Beta2AR agonist,Calb FLC,Beta cell apopt
Cc1nn(CCC#N)c(NC(=O)c2ccc(Cl)cc2)c1P(=O)(Nc1ccc([N+](=O)[O-])cc1)N1CCOCC1 (stereo unspecified),0.6,-1.3,1.0,2,8.0,1,-2,.
C[C@@]12C(=O)Nc3ccccc3C(=O)N1[C@H]1c3cc(Cl)ccc3OC[C@@H]1[C@@H]2c1ccccc1,-0.2,-4.9,.,.,3.2,7,.,-2
Cc1cc2ncn(C(=O)c3c(-c4ccccc4Cl)noc3C)c2cc1C,-0.5,1.2,3.0,1,0.7,8,1,1
COc1ccc(C(=O)CC(=O)c2ccc(C)cc2)c(O)c1,-0.4,-5.0,2.9,-9,5.1,-2,-6,3
CCOC(=O)[C@H]1[C@H]2COc3ccccc3[C@@H]2N2C(=O)c3cc(C)ccc3NC(=O)[C@@]12C,0.4,1.8,.,.,-0.2,1,.,7
NC(=O)CC(NC(=O)c1ccc(Br)cc1)c1ccc(NCCc2ccc(F)cc2)c([N+](=O)[O-])c1 (stereo unspecified),-0.1,-6.0,-4.8,-21,0.0,-9,-11,.
O=C1NC(=O)C(CC(=O)N(Cc2ccco2)C2(C(=O)NC3CCCCC3)CCCCC2)N1 (stereo unspecified),-0.3,3.1,.,.,-3.4,-1,.,.
Cc1nc(NC(=O)CN2CC(C)OC(C)C2)sc1C(=O)N(C)C (stereo unspecified),-0.7,3.9,-1.2,-7,0.8,-2,1,-9
Cc1ccccc1-c1nc(CN2CCCC(C(=O)NCCCN3CCOCC3)C2)c(C)o1 (stereo unspecified),-0.5,2.3,-3.6,66*,6.0,2,?,1
CN(C)CC(C)(C)CNC(=O)C1CCN(Cc2ccccc2O)CC1,0.3,5.8,3.0,-13,1.5,-3,-1,3
Cc1nnc(SCC(=O)N2CCCCC2)n1CC1CCCO1 (stereo unspecified),-0.5,-3.8,-4.3,-6,1.1,5,5,-5
Cc1c(NC(=O)/C=C/c2cn(-c3ccccc3)nc2-c2ccccc2)c(=O)n(-c2ccccc2)n1C,0.2,1.4,-0.5,14,2.5,38,4,1
CC(C)C(=O)NNc1ccc(C(F)(F)F)cn1,0.5,3.2,1.3,-18,.,12,12,-2
CCOC(=O)C1=C(c2ccc(OC)cc2)OC(N)=C(C#N)C1c1cccnc1 (stereo unspecified),1.1,-7.7,22,-9,2.0,-3,13,-12
Cc1cc(Cl)c2oc(C(=O)N(C)Cc3cc(C)[nH]n3)c(C)c2c1,-0.4,-1.3,-0.7,8,3.8,2,3,-30
CC1CN(C(=O)CSc2nnc(CNC(=O)c3ccc(S(=O)(=O)N(C)C)cc3)o2)CC(C)O1 (stereo unspecified),?,0.4,5.0,-2,-0.1,5,-3,0
O=C(COC(=O)c1ccccn1)c1ccc([N+](=O)[O-])cc1,-0.5,1.9,-2.8,3,3.2,2,1,2
Cc1ccc(/C=C/C(=O)N2CCN(Cc3ccccc3)CC2)o1,0.0,4.9,6.5,5,2.6,-8,-7,.
O=C(CNc1cccc([N+](=O)[O-])c1)N/N=C/c1ccc([N+](=O)[O-])o1,-0.6,2.2,0.8,68*,.,-2,-2,93*
O=C(c1cccc(Cl)c1)N1CCN(C(=O)c2ccco2)CC1,-0.7,3.6,6.3,2,2.1,-7,-1,0
O/N=C(\c1ccccc1)C(O)c1ccccc1 (stereo unspecified),1.7,-0.1,-1.7,-8,.,3,-2,.
NC(=O)CCC(NS(=O)(=O)c1ccc(Cl)cc1)C(=O)NCc1ccccc1 (stereo unspecified),-0.3,0.9,0.6,-5,1.7,.,-10,0
CCOCc1[nH]c(=S)[nH]c(=O)c1Cc1ccc(OCC(C)C)cc1,-0.7,5.1,3.2,4,4.0,-1,-23,3
O=C(Cn1ncn2c(cc3ccccc32)c1=O)NCCCc1ccccc1,0.5,-3.1,2.2,-14,-16,-16,-4,-1
COCCn1c(=O)c2cc3c(=O)n(CCOC)c(=O)c3cc2c1=O,-1.4,-2.8,-1.3,1,3.9,4,-6,-3
Cc1ccccc1NC(=O)c1cc(=O)c2ccccc2o1,0.0,-8.6,5.9,-30,4.6,-11,6,2
O=C(O)Cc1c[nH]c2ccccc12,0.0,16,-1.7,-16,-0.1,2,-1,-1
Cc1ccsc1/C=N/Nc1cccc(C(=O)O)c1,-9.0,-3.8,.,-10,.,2,-9,-1
CCOc1ccccc1CNCCNC(=O)c1nonc1N,-0.7,2.8,-2.9,-6,3.2,-1,-4,-4
COc1cc(NC(=O)C2=C(N3CCOCC3)/C(=C\c3ccc(N(C)C)cc3)CCC2)cc(OC)c1OC,0.0,-4.6,-0.3,-22,0.1,35,-1,17
O=C(Nc1cccnc1)c1cnn2c(C(F)F)cc(C3CC3)nc12,0.2,2.1,-2.4,-3,6.5,-1,-9,3
COc1ccc(CC(=O)n2nc(-c3cccnc3)nc2N)cc1,0.4,7.0,0.8,-11,-1.9,3,6,-7
S=C(NCc1ccco1)NCC1CCCO1 (stereo unspecified),1.2,-1.6,2.8,-12,-0.9,-3,10,-1
Cc1onc(-c2ccccc2Cl)c1C(=O)N1CCN(Cc2ccc3c(c2)OCO3)CC1,1.8,2.7,-2.9,4,1.6,5,3,6
Cc1ccc(CNC(=O)C2CCCN(S(=O)(=O)c3c(C)noc3/C=C/N(C)C)C2)cc1 (stereo unspecified),0.0,-0.1,-3.1,40,10,-6,-2,-8
O=C1c2ccccc2C(=O)N1Cc1cnc(N2CCN(c3ccccc3)CC2)s1,-1.1,2.0,0.2,1,1.8,-15,1,6
O=C(NCCn1cc(SCc2ccccc2)c2ccccc21)c1c(F)cccc1F,-0.1,-1.5,0.3,28,0.1,7,-3,21
COCCN1C=C2C(=O)C(C)(OC(=O)CCc3ccccc3)C(=O)C=C2C=C1c1ccc(C#N)cc1 (stereo unspecified),0.9,101*,1.9,7,2.3,-17,13,-7
CC1=N/C(=C\c2ccc([N+](=O)[O-])cc2)C(=O)N1c1ccc(F)cc1F,?,0.1,2.8,-2,4.4,5,-5,-6
COCCSc1ccccc1C(=O)Nc1ccc(Cl)cc1,-0.2,9.6,-0.8,13,1.3,-12,-5,-6
COc1ccc(/C(O)=C2/C(=O)C(=O)N(CCN3CCOCC3)C2c2ccc(C)cc2)cc1 (stereo unspecified),0.2,9.8,-0.2,-11,11,3,2,.
Cc1ccc(C)c(S(=O)(=O)NCc2ccc(C(=O)N3CC(C)OC(C)C3)cc2)c1 (stereo unspecified),-0.2,0.7,-2.6,2,-0.4,3,-3,0
CCOc1cc(C)nc(NCCc2ccc(OC)c(OC)c2)n1,-0.1,5.5,-1.3,-6,-2.7,-7,15,5
O=C(CSc1nc(O)cc(=O)n1-c1ccccc1)NC1CCCCC1,-0.2,-3.9,0.7,6,.,0,4,0
CCOC(=O)N1CCN(Cc2nc3cc(NC(=O)CC(C)C)ccc3n2C)CC1,0.9,1.3,0.2,-4,-1.9,-4,-3,0
Cc1[nH]nc(SCC(=O)NCc2ccccc2)c1[N+](=O)[O-],-0.2,.,0.0,-15,.,3,-8,-1
COC(=O)c1cc(C(=O)c2ccccc2)n2c(=O)/c(=C\N(C)C)sc12,-0.1,3.5,1.0,10,.,.,6,13
C[C@H](NC(=O)OCc1ccccc1)C(=O)NNC(=O)[C@H](Cc1ccccc1)NC(=O)OC(C)(C)C,0.5,-7.1,-2.6,-10,-0.9,7,-1,10
Cc1ccc(Cn2c(C)nc3c(c2=O)c2nc4ccccc4nc2n3Cc2ccco2)cc1,-0.5,-1.1,?,9,-160,0,27,-4
O=C(Nc1ccccc1[N+](=O)[O-])C1(c2ccccc2)CCOCC1,-0.3,1.9,-2.6,2,0.0,2,15,-4
CCCn1c(N)c(C(=O)CN2CCN(S(=O)(=O)c3cccs3)CC2)c(=O)[nH]c1=O,-0.5,1.3,?,-3,3.5,10,4,-11
O=[N+]([O-])c1ccc2c3n([n+]([O-])c2c1)CCN=C3c1ccc(Cl)cc1,1.7,1.0,2.9,4,-0.1,-9,37,-1
CCOC(=O)C1CN(S(=O)(=O)c2ccc(C)cc2)C1,0.0,0.4,-2.3,-7,2.9,-2,-22,-1
CCOc1ccc(C(=O)NCc2cccnc2)cc1,1.2,-1.9,1.8,-5,5.3,1,-15,-3
CC1CCCC2(C1)NC(=S)c1c(sc3c1CCCC3)N2 (stereo unspecified),1.1,1.5,0.4,-18,3.9,0,50,-6
Cn1c(SCC(=O)N2CCCC2=O)nc2ccccc2c1=O,1.5,2.1,.,.,1.1,-7,.,6
O=C(NC(=S)Nc1cccnc1)c1cc2ccccc2o1,-6.4,0.9,-0.4,-12,2.7,-5,-16,-4
O=C(CSc1nccc(=O)[nH]1)c1c[nH]c2ccccc12,-2.2,-3.4,-4.5,2,2.4,10,-2,-8
CSc1cccc(NC(=S)N(CCN(C)C)C(C)c2ccncc2)c1 (stereo unspecified),1.0,-1.4,-2.3,-5,3.4,0,4,-6
CC[n+]1c(/C=C/N(C)c2ccccc2)oc2ccc(F)cc21,0.4,-12,0.0,30,24*,-726,-3,53

# Carrying on:
SMILES,Bfl-1 A1 inh,LANA-H2B inh,RanGTP-Impb inh,T cruzi repl,UCH37 inh,Beta2AR agonist,Calb FLC,Beta cell apopt
C=CC[N+](C)(C)CCCNC(=O)/C=N/O,0.1,-3.9,1.5,-10,.,10,1,1
COc1ccc(-c2c(C(C)=O)c(C)nc3sc4c(=N)n(N)cnc4c23)cc1,-0.1,-0.6,-1.6,20,6.6,-21,21,-4
CCCCNC(=O)C(=O)N/N=C/c1ccc(C(=O)OC)cc1,0.9,-5.2,0.5,3,.,16,0,0
CC1(C)Cc2c(ccc3ccccc23)C(NNC(=O)c2cccnc2)=N1,-0.4,3.8,5.1,2,6.3,-2,6,9
CCCC(=Nc1ccc(N)cc1)C1=C(O)C(C(=O)OC)C(C)(C)CC1=O (stereo unspecified),-0.2,1.1,-5.6,0,6.6,-4,1,13
CC(C)CC(C(=O)NC1CCCC1)N(Cc1cccs1)C(=O)c1snc(C(N)=O)c1N (stereo unspecified),-0.2,0.3,3.3,12,-14,12,11,-5
Cc1ccc(C(=O)C2CCN(C(=S)NCCCOC(C)C)CC2)cc1,0.9,-0.1,-3.7,5,1.4,9,-2,.
COc1ccc(NC(=O)C(OC)c2ccccc2)cc1Cl (stereo unspecified),-0.9,-0.7,4.2,-11,-0.5,8,-2,5
CC(O)CNc1ncnc2nc[nH]c12 (stereo unspecified),0.5,1.2,1.5,0,5.4,-1,-5,0
O=C(/C=C/c1ccc(O)cc1)c1ccccc1,-5.0,5.9,-4.3,-1,5.1,18,1,-1

# An excerpt from above in order of their number in UCH37 inh, smallest number first:
molecule | UCH37 inh
Cc1nnc(SCC(=O)N2CCCCC2)n1CC1CCCO1 (stereo unspecified) | 1.1
Cc1ccc(/C=C/C(=O)N2CCN(Cc3ccccc3)CC2)o1 | 2.6
CC[n+]1c(/C=C/N(C)c2ccccc2)oc2ccc(F)cc21 | 24*
